# Assay outcomes: PubChem BioAssay, National Center for Advancing Translational Sciences (NCATS)
# PINK1 expr mod = PINK1 expression modulation; PINK1 immunofluorescence, high-content cytometry, 24 h; Potency, µM (highest dose often 76.6 µM), for the others: at the highest dose activation (PINK1 increase), hits mostly activators; 410,000 compounds, 0.2% hits; AID 624263; active = well fitted activation curve with a large enough effect; inconclusive = small, poorly fitted or top-dose-only effect; inactive = flat fitted curve, though single readings scatter; cell line not stated here;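 further: potency means the concentration at half of the fitted maximal effect; % of control where 0% means no effect; nearly all actives have a fitted effect of over 65% in size; a mitochondrial uncoupler was the plate control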
#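 PINK1 protein level read as immunofluorescence by microplate cytometer in a fixed, stained stable cell line after 24 h exposure to five compound concentrations, with CCCP as control.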
# D2 ag = human D2 receptor agonism in beta-arrestin assay. P14416. DiscoveRx PathHunter D2 beta-arrestin, luminescence, 90 min; 100% = 57 uM dopamine signal. activation, % (concentration not given with the values). 360,000 compounds, 0.084% hits; in the data active = activation above about 40%; inconclusive = about 15% to 40%; inactive = below about 15%; further: the text of the record calls up to 30% inactive
# Target sequence (P14416 whole entry, looked up): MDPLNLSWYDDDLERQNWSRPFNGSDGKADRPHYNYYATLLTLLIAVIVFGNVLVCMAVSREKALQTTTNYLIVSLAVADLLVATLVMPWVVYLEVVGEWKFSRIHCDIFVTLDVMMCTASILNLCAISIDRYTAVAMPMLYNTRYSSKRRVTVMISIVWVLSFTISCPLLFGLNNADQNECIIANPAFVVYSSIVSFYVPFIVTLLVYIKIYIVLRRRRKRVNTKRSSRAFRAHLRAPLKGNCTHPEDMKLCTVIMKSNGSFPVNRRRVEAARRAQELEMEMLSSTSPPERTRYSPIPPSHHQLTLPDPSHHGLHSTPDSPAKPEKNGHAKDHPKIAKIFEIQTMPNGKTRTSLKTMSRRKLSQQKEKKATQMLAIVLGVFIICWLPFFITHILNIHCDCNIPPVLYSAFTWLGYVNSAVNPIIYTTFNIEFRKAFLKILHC
#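 Agonist mode: compounds alone added to overnight-plated D2 PathHunter cells for 90 min at 37 C, with 57 uM final dopamine (EC100) defining full response. Beta-arrestin recruitment detected by chemiluminescent reagent, read after 1 h at ambient temperature.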
# Six1-Eya2 inh = inhibitors of human Six1/Eya2 interaction; AlphaScreen GST-Six1/His-Eya2 binding, biochemical; hits give low values; control for the full effect not named in the record; 360,000 compounds, 0.56% hits; activity change, % (test concentration not listed); in the data active = activity change below about -65%; inconclusive = about -30% to -65%; inactive = above about -30%; further: on the % scale 0 is the no-effect control and ±100 the full control effect
#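 GST-Six1 + His-Eya2 (5X stock: 250/500 nM); Tris pH 8.0, 300 mM NaCl, 0.05% BSA, 0.02% Tween 20; GSH donor/Ni acceptor beads; 1 h 37 °C dark; AlphaScreen readout.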
# CtBP-E1A inh = blocks the CtBP interaction with E1A; AlphaScreen GST-E1A/His-CtBP binding, 1536-well; hits give low values; control for the full effect not named in the record; activity change, % (concentration not given with the values); 340,000 compounds, 0.49% hits; in the data active means activity change below about -65%; inconclusive means about -30% to -65%; inactive means above about -30%; further: on the % scale 0 is the no-effect control and ±100 the full control effect
#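 Homogeneous bead-based format: GST-tagged E1A captured on glutathione donor beads, His-tagged CtBP on nickel acceptor beads; compounds precede bead addition by 2 h at 37 °C.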
# TRPML1 blocker = inhibitors of human TRPML1 channel; Q9GZU1; TRPML1-inducible cells, Ca2+ dye fluorescence, FDSS; hits give low values; inhibition of EC80 agonist-evoked calcium signal; activity change, negative = inhibition, % (concentration not given with the values); 390,000 compounds, 0.02% hits; AID 624415; in the data active means activity change below about -50%; inconclusive means about -30% to -50%; inactive means above about -30%;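 further: stimulus is agonist 54-4 at its EC80 concentration; on the % scale 0 is the no-effect control and ±100 the full control effect; the text of the record puts the active cut at -80%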
# Target sequence (Q9GZU1 whole entry, looked up): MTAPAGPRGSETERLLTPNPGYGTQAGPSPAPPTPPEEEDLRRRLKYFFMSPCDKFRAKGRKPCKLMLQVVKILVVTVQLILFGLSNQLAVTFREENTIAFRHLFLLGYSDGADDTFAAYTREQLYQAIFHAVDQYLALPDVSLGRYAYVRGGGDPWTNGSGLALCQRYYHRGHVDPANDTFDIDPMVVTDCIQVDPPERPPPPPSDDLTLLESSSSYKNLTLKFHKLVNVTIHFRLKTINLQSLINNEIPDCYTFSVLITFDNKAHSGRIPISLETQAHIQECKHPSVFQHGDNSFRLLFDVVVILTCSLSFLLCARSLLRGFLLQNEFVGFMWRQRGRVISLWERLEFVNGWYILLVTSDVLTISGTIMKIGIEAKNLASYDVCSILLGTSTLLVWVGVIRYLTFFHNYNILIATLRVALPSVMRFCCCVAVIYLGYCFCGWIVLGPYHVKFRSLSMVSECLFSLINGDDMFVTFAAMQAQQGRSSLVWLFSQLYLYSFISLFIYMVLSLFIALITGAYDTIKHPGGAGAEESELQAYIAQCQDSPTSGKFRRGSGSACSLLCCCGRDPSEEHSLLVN
#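 Calcium fluorescence in TRPML1-DL cells induced overnight with Tet: a 110 s read after compound pin addition, then a 110 s antagonist read after challenge with 54-4 at 4 uM final (EC80).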
# TRPML1 agonist = agonists of human TRPML1 channel | Q9GZU1 | TRPML1-expressing cells, Ca2+ dye fluorescence, FDSS; host cell line not named in the record; reference of the full effect not given here | activation, % (test concentration not listed) | 410,000 compounds, 0.12% hits | AID 624414; in the data active = activation above about 50%; inconclusive = about 30% to 50%; inactive = below about 30%; further: 0% is about no effect; the text of the record puts the active cut at 80%
#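 Agonist activity was taken from a 110 s kinetic Ca2+ dye read on the FDSS after pinning compounds onto TRPML1-DL cells. The cells were seeded at 1,500/well with Tet inducer, incubated about 16 h, then dye-loaded at room temperature.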
# * = called active by the depositor; ? = inconclusive; · = not tested or not shown; & = joins results of further samples; [ ] = dose if it differs, or a comment.
canonical_smiles	D2 ag	Six1-Eya2 inh	TRPML1 blocker	PINK1 expr mod	CtBP-E1A inh	TRPML1 agonist
CCS(=O)(=O)N1CCc2cc(C(=O)Nc3cc(C)cc(C)c3)ccc21	·	·	-4	1.7%	·	-0.8
COCCNC(=O)C1(C)CCCN(Cc2cc(C(F)(F)F)ccc2Cl)C1 (configuration not stated)	-5.4	8	·	2.8%	6	-0.6
COc1ccc(C2=CC(=O)CC(C)(C)C2)cc1	-4.7	0	5	1.5%	1	-0.6
S=C(Nc1ccccc1)N1CCn2c(nc3ccccc32)C1	6.4	1	-7	2.0%	5	-0.9
CN1OC[C@@H]2CN[C@H](c3ccc(-c4ccc(C#N)cc4)cc3)C[C@@H]21	-4.4	14	16	-2.1%	-7	-0.1
COc1cc(-n2c(-c3ccccc3)n[nH]c2=S)c(OC)cc1Cl	-4.1	4	-12	-1.0%	5	1.0
COc1cccc(-n2nnnc2SCC(=O)NCCc2ccc(OC)c(OC)c2)c1	-0.9	10	19	-0.9%	2	1.7
CC(C)(C)NC(=O)CSc1nnc(C2CC2)n1Cc1ccccc1	-3.1	7	-4	-1.3%	5	-1.2
COCC1CCCN(Cc2cn[nH]c2-c2cc3ccccc3o2)C1 (configuration not stated)	-2.8	3	-9	1.5%	0	1.0
C/C(=N\NC(=O)C1CCCC1)c1ccc(Cl)cc1Cl	1.6	2	17	7.6%	2	1.3
CCOc1ccc2[nH]c(=S)sc2c1	-6.6	4	·	-0.5%	3	-0.9
CCN(C(=O)CSc1ncccc1C(=O)Oc1cccc([N+](=O)[O-])c1)c1cccc(C)c1	-3.3	?	74	4.2%	10	2.7
NC(=O)c1nc(C2CCCCC2)nc2c1[nH]c(=O)n2-c1ccc(F)cc1	-0.7	-1	-21	1.4%	1	-1.1
Cc1ccc(S(=O)(=O)Nc2ccc(S(=O)(=O)Nc3nccs3)cc2)cc1C	2.2	4	-2	0.2%	-1	-0.6
COc1ccccc1CNc1nc(Nc2cccc(-c3cnco3)c2)c2sccc2n1	?	-20	·	3.4%	-14	-0.8
Cc1ccccc1N(CC(=O)NCC1CCCO1)C(=O)CNS(=O)(=O)c1ccc(F)cc1 (configuration not stated)	0.8	-1	-1	0.5%	0	0.0
OCc1nnc2c3ccccc3c(-c3ccccc3)nn12	-5.5	-6	7	·	-2	0.5
Cc1ccc(C(=O)Nc2cc(C(F)(F)F)ccc2N2CCCCC2)cc1[N+](=O)[O-]	-2.0	-1	-7	8.9%	-4	0.4
O=c1c(O)c(-c2ccc(O)c(O)c2)oc2cc(O)cc(O)c12	6.2	11	6	1.5%&-0.2%&-1.7%	1	0.6&0.1
O=C(CN1CCSC1=O)N1CCN(S(=O)(=O)c2ccccc2)CC1	-1.6	0	-14	2.2%	0	-0.5
CCOC(=O)[C@@H]1[C@H]2COc3cc(OC)ccc3[C@@H]2N2C(=O)N(c3ccc(Cl)cc3)C(=O)[C@]12C	-3.0	-6	0	0.8%	-1	-1.1
CCCCOc1ccc(S(=O)(=O)NCc2csc(C)n2)cc1	-1.8	4	-1	4.2%[38.3 µM]	4	0.5
O=C(NN1C(=O)C2C(c3ccccc3)C=CC(c3ccccc3)C2C1=O)c1cccc(Br)c1 (configuration not stated)	-5.4	9	1	3.9%	6	-0.6
Fc1ccc(-c2noc3ncnc(Nc4ccc(F)cc4F)c23)cc1	·	·	-2	-1.2%	·	1.0
Cc1cc(C(=O)NC(CC(C)C)C(=O)O)cc(C)c1[N+](=O)[O-] (configuration not stated)	1.2	3	4	1.2%	12	-0.8
COc1cc([N+](=O)[O-])ccc1NC(=O)C[n+]1ccccc1	-5.3	1	-1	-2.6%	0	-0.3
CC(=O)Nc1ccc(N2CCCC(C)C2)c([N+](=O)[O-])c1 (configuration not stated)	-3.3	-13	6	-1.9%	-16	0.5
COc1ccc(N2CCN(C(=O)c3ccc(S(=O)(=O)NCc4ccco4)cc3)CC2)cc1	1.2	-8	-2	-0.2%	-1	0.2
COc1ccc(CNC(=O)c2ccc(-c3c(C)noc3C)c3ccoc23)cc1OC	5.8	-28	·	2.6%	-29	0.3
CN(C(=O)CSc1nc2ccc(NC(=O)COc3ccccc3Cl)cc2s1)c1ccccc1	·	·	16	1.3%	·	-0.1
O=C(NCC1(c2ccccc2)CCCC1)c1ccc(Br)o1	-4.2	30	-16	-0.7%	0	70*
CCn1nc(NC(=O)c2ccco2)c2cc3cc(C)ccc3nc21	0.8	10	5	1.3%	-11	-0.5
O=C(NCCC1=CCCCC1)C1CCN(c2nnc(-n3cccc3)s2)CC1	-3.8	-3	27	-0.4%	0	-1.5
CCC1=NN2C(=N)/C(=C\c3cccn3-c3c(C)cccc3C)C(=O)N=C2S1	2.0	-8	-8	3.5%	10	2.0
NC(=O)CCn1nc(-c2ccc(Cl)cc2)c2ccccc2c1=O	-1.9	1	40	-0.5%	-10	-0.2
O=c1[nH]c2cc3ccccc3cc2nc1-c1nnnn1C1CCCC1	·	?	·	1.6%	-18	3.7
O=C(CC1Nc2ccccc2NC1=O)NC1CCCCC1 (configuration not stated)	-0.8	-1	9	-0.7%	5	-0.8
Cc1cc(C)c(NC(=O)CS(=O)CC(=O)N2CCN(c3ccc(F)cc3)CC2)c(C)c1 (configuration not stated)	-2.0	0	7	11%[38.3 µM]	2	0.1
CN(C)/C=C1/Sc2ccccc2C1=O	-2.3	1	4	-1.3%	-2	0.1
CCOC(=O)Cn1c(=O)oc2cc(S(=O)(=O)N3CCN(c4ccc(F)cc4)CC3)ccc21	·	·	-7	11%	·	0.4
O=C(O)C1C2CCC(O2)C1C(=O)NCc1ccc(Cl)cc1 (configuration not stated)	0.9	9	16	0.4%	3	2.9
COc1ccc(-c2noc(CCC(=O)Nc3cccc(C(=O)NC4CC4)c3)n2)cc1OC	4.7	4	-7	-0.4%	-1	0.4
CCCN(CCC)S(=O)(=O)c1ccc(C(=O)NNC(=O)c2cc(OC)c(OC)c(OC)c2)cc1	-1.3	73	-5	10%	4	-0.6
COc1ccc(/C=N/Nc2ccc(C(=O)O)cc2)cc1OC	-1.5	-2	-3	0.9%	-1	-0.2
CC(=O)OCC1(C)CN(c2ccccc2)NC1=O (configuration not stated)	?	7	-11	-0.8%	·	-0.6
O=C(Nc1ccccc1F)c1ccc2nc(N3C(=O)CCC3=O)sc2c1	-1.7	-3	-3	-2.2%	-17	-1.1
COc1ccc(N(C(=O)Nc2ccc(Cl)cc2)C2=NCCC2)cc1	-5.0	1	6	·	7	2.5
CCOC(=O)C1=C(C)Nc2ccccc2N=C1NC(=O)c1cc(C)on1	-0.9	5	10	0.7%	-9	0.7
COc1ccc(N(C)S(=O)(=O)c2cccc(C(=O)N3CCN(c4cccc(C)c4C)CC3)c2)cc1	-0.7	-1	2	4.3%	5	1.9
Cc1cc(C)nc(SCC(CSc2nc(C)cc(C)n2)C(=O)O)n1	-2.6	2	-6	1.3%	5	0.7
CCOC(=O)C(=O)N/N=C/c1cccc(Br)c1	-1.3	-2	3	1.8%	6	0.9
Cc1cccc2c1-c1sc(C(=O)NCCCN3CCN(c4ccccc4F)CC3)cc1CO2	·	·	21	0.6%	·	-0.4
Cn1c(SC/C=C/c2ccccc2)nnc1-c1cccs1	-4.3	7	-11	-2.2%	1	0.7
O=C(OCC(=O)N1CCN(C(=O)c2ccco2)CC1)c1ccccc1O	-1.6	9	1	-1.9%	7	-1.0
O=c1cc(O)c(-c2ccccc2Cl)c(Cl)[nH]1	-3.7	5	-1	-0.7%	3	-0.7
O=C(CC[C@H]1O[C@@H](n2ccc(=O)[nH]c2=O)[C@H](O)[C@@H]1O)NCCCc1ccccc1	-4.2	2	-6	1.0%	1	-0.2
CC1=CC(Cc2ccccc2)N(C)C(C(N)=O)C1 (configuration not stated)	1.4	6	·	1.2%	7	-0.5
CCOCCCNC(=O)C(NC(=O)Cc1c[nH]c2ccccc12)c1ccc(OC)cc1 (configuration not stated)	-3.2	-16	-3	-0.3%	-3	-0.3
CC(C)C(NC(=O)C1CCC(C(C)(C)C)CC1)C(=O)NCc1cccnc1 (configuration not stated)	-3.0	-1	3	1.7%	0	-0.2
CCCCOC(=O)c1ccc(Nc2ncnc3[nH]ncc23)cc1	·	·	14	6.1%	·	0.6

# Entries of single compounds, looked up by structure. Values in the order: D2 ag	Six1-Eya2 inh	TRPML1 blocker	PINK1 expr mod	CtBP-E1A inh	TRPML1 agonist
# CC(=O)OCC1(C)CN(c2ccccc2)NC1=O (configuration not stated) is listed with ?	7	-11	-0.8%	·	-0.6
# CCOC(=O)Cn1c(=O)oc2cc(S(=O)(=O)N3CCN(c4ccc(F)cc4)CC3)ccc21 is listed with ·	·	-7	11%	·	0.4

# Shown with each value named: part of the list above
COc1ccc(N(C)S(=O)(=O)c2cccc(C(=O)N3CCN(c4cccc(C)c4C)CC3)c2)cc1
  D2 ag: -0.7	Six1-Eya2 inh: -1	TRPML1 blocker: 2	PINK1 expr mod: 4.3%	CtBP-E1A inh: 5	TRPML1 agonist: 1.9
COc1ccc(N(C(=O)Nc2ccc(Cl)cc2)C2=NCCC2)cc1
  D2 ag: -5.0	Six1-Eya2 inh: 1	TRPML1 blocker: 6	PINK1 expr mod: ·	CtBP-E1A inh: 7	TRPML1 agonist: 2.5
O=c1cc(O)c(-c2ccccc2Cl)c(Cl)[nH]1
  D2 ag: -3.7	Six1-Eya2 inh: 5	TRPML1 blocker: -1	PINK1 expr mod: -0.7%	CtBP-E1A inh: 3	TRPML1 agonist: -0.7
O=C(CC[C@H]1O[C@@H](n2ccc(=O)[nH]c2=O)[C@H](O)[C@@H]1O)NCCCc1ccccc1
  D2 ag: -4.2	Six1-Eya2 inh: 2	TRPML1 blocker: -6	PINK1 expr mod: 1.0%	CtBP-E1A inh: 1	TRPML1 agonist: -0.2

# Other compounds.
canonical_smiles	D2 ag	Six1-Eya2 inh	TRPML1 blocker	PINK1 expr mod	CtBP-E1A inh	TRPML1 agonist
CC(C)(C)c1ccc(C(=O)c2c[nH]c(C(=O)O)c2)cc1	-2.9	1	-16	-1.6%	5	1.5
Cc1[nH]c2ccccc2c1SCCN	-4.3	-2	-1	3.3%	-8	0.4
N#C/C(=C\c1ccc(-c2cccc(Cl)c2)o1)C(=O)Nc1cccc(C(F)(F)F)c1	·	·	-8	1.0%	·	2.7
CCOc1ccc2nc(Nc3nc(CSc4nnnn4-c4ccccc4)cc(=O)[nH]3)nc(C)c2c1	0.4	-1	4	5.8%	0	0.0
CC(=O)c1cccc(NC(=O)N2CCCC2C(=O)NCc2ccccc2)c1 (configuration not stated)	-2.3	1	-6	-2.8%	-4	3.3
Cc1ccc(C)c(N2CCN(C(=O)CCc3nnc4n(CC(C)C)c(=O)c5ccccc5n34)CC2)c1	·	·	17	1.4%	·	0.1
COc1ccc(C(=O)Nc2ccc3c(c2)OCCO3)cc1	-0.6	-2	1	2.1%[38.3 µM]	-2	-0.2
